PK Bst = Pyruvate Kinase. 1.2% of 51,000 active. Potency, µM. partly purified Bacillus stearothermophilus pyruvate kinase, luminescence ATP production; ribose 5-phosphate activator present at AC10; in the data active means potency below about 11 µM; inconclusive means mostly about 12 µM to 25 µM; inactive means weaker than that;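 the screen sought inhibitors and activators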;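 note: potency is the fitted concentration of half-maximal effect; scaled between full activation by ribose 5 phosphate and full inhibition by luteolin; about four in five hits inhibit and the cells do not say which; series up to 57 µM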
TsaE inh = qHTS Assay for Inhibitors of YjeE | purified YjeE, fluorescence polarisation of a bound ADP probe | AID 605, 2007 | 0.05% of 71,000 active | tRNA threonylcarbamoyladenosine biosynthesis protein TsaE (Escherichia coli (strain … | Potency, µM; active = well fitted falling curve; inconclusive = weaker or top-dose-only fall, or a rising curve; inactive = flat or poorly fitted curve;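 note: top concentration of the series not given in the record; excess ADP was the control for the full effect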
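Fluorescence polarization of a BODIPY Texas Red–ADP probe (2 uM) bound to purified YjeE (10 uM) was read after 15 min room-temperature incubation with compounds. Loss of polarization marks inhibitors; ADP serves as titrated control.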
The depositor's hits bear a star; i = inactive; ? = inconclusive; nt = not tested or not shown.

SMILES	PK Bst	TsaE inh
CCOC(=O)C1CCN(CC(=O)Nc2c(C(=O)OC)n(C)c3cccc(C)c23)CC1	>57	i
O=C(Nc1ccc(-c2cn3ccsc3n2)cc1)C1COc2ccccc2O1 (configuration not stated)	nt	i
COc1cccc(OCc2nc3ccccc3[nH]2)c1	nt	i
O=C(Nc1ccccc1)c1cnc2n(c1=O)CCS2	nt	i
COc1ccc(-c2noc(CSc3nnc(-c4ccncc4)n3-c3ccc(F)cc3)n2)cc1OC	>57	i
O=C(NC1=NCCS1)c1ccc(Cl)s1	nt	i
Cc1cc(C)n(-c2cc(-c3ccccc3)nc(C)n2)n1	>57	i
N#CCSc1nc2cc(C(=O)N3CCC(C(N)=O)CC3)ccc2c2nc3ccccc3n12	0.47*	i
COc1nc(-c2ccc(Cl)cc2)ccc1-c1noc(-c2ccco2)n1	>57	i
Cc1ccc2[nH]c3c(c2c1)CN(C(=O)CN1CCN(Cc2ccc4c(c2)OCO4)CC1)CC3	>57	i
Cc1ccc2oc(=O)c3cc(C(=O)N4CCN(C(=O)c5ccco5)CC4)sc3c2c1	nt	i
Cc1c(C(=O)N2CCCCC2)oc2ccc(S(=O)(=O)N3CC(C)CC(C)C3)cc12 (configuration not stated)	>57	i
O=C(c1cccc(F)c1)N1CCC2(CC1)CCN(c1ccccn1)CC2	nt	i
COC(=O)c1cc(OC)c(OC)cc1NC(=O)c1ccco1	>57	i
COc1ccc(S(=O)(=O)Cc2ccc(C(=O)N3CCC(C(N)=O)CC3)o2)cc1	nt	i
CCOc1c(CNCCNC(=O)c2nonc2N)cccc1OC	>57	i
Cc1ccc(S(=O)(=O)CCC(=O)c2ccc(O)cc2O)cc1	i	i
O=C(c1cccn2c(=O)c3ccccc3nc12)N1CCN(Cc2ccc3c(c2)OCO3)CC1	>57	i
CN(Cc1ccco1)c1ncnc2ccc(-c3ccccc3C#N)cc12	nt	i
Nc1nc(-c2cccnc2)nn1S(=O)(=O)c1ccccc1	>57	i
COC(=O)c1cc(NC(=O)c2nccnc2C(=O)O)cc(C(=O)OC)c1	nt	i
CCC(C)(C)NC(=O)C(c1cccn1C)N(C(=O)Cn1nnc2ccccc21)c1ccccc1OC (configuration not stated)	>57	i
O=C(Nc1ccc(N2CCCCC2)cc1)c1cccnc1	nt	i
CC(=O)Nc1ccc(OCC(O)Cn2nc(C)nc2C)cc1 (configuration not stated)	>57	i
O=C(CSc1nnnn1-c1ccc2c(c1)OCCO2)Nc1nc2c(s1)CCCC2	>57	i
CN1C(=O)C2(N=c3ccccc3=N2)c2ccccc21	?	nt
O=C(NCCSCc1ccco1)Nc1ccc(Cl)cc1	nt	i
CCOC(=O)c1[nH]c(C)c(/C(O)=C2\C(=O)C(=O)N(CCCN3CCOCC3)C2c2cccnc2)c1C (configuration not stated)	>57	i
CCC(C)n1[nH]c(=O)c2c(C)cc(C)nc21 (configuration not stated)	>57	i
Nc1nc(-c2ccco2)nn1C(=O)CCc1ccccc1	>57	i
O=C1C(Cl)=C(N2CCOCC2)C(=O)N1c1cccc(Cl)c1	nt	i
Cc1cc(CN2CCCCC2)c(O)c(CN2CCCCC2)c1	nt	i
C/C(Cl)=C\Cn1c(Nc2cccc(C)c2)nc2c1c(=O)n(C)c(=O)n2C	>57	i
COc1ccccc1N1CCN(C2=NS(=O)(=O)c3ccccc32)CC1	>57	i
c1ccc(-c2cn3nc(-c4ccccc4)sc3n2)cc1	nt	i
CCOc1ccc(C2CC(c3ccccc3C)n3nc(N)nc3N2)cc1 (configuration not stated)	nt	i
COc1cccc(NC2c3ccccc3C(=O)N2Cc2ccco2)c1 (configuration not stated)	nt	i
CC(C)C(c1nnnn1C(C)(C)C)N1CCN(c2cccc(Cl)c2)CC1 (configuration not stated)	>57	i
COC(=O)c1ccccc1NC(=O)C1CCCN(S(=O)(=O)c2ccc(F)cc2)C1 (configuration not stated)	>57	i
O=C1CC2(CCCCC2)Oc2ccc(OCC(=O)N3CCOCC3)cc21	>57	i
CC1CN(S(=O)(=O)c2ccc(NC(=O)CCN3C(=O)c4ccccc4C3=O)cc2)CC(C)O1 (configuration not stated)	>57	i
CC(=O)Nc1cc(C(=O)O)ccc1S(=O)(=O)c1ccc(C)cc1	>57	i
CC(=C1C(=O)c2ccccc2C1=O)N1CCC(C(N)=O)(N2CCCCC2)CC1	>57	i
Cc1c2c(nc3c(C(=O)NC4CCCC4)cnn13)CCCC2	>57	i
CN(C)S(=O)(=O)c1ccc(C(=O)Nc2ccc(CN3CCCC3)cc2)cc1	>57	i

Seven entries from above, with bars between the fields:
molecule | PK Bst | TsaE inh
c1ccc(-c2cn3nc(-c4ccccc4)sc3n2)cc1 | nt | i
COc1cccc(NC2c3ccccc3C(=O)N2Cc2ccco2)c1 (configuration not stated) | nt | i
COC(=O)c1ccccc1NC(=O)C1CCCN(S(=O)(=O)c2ccc(F)cc2)C1 (configuration not stated) | >57 | i
CC(=C1C(=O)c2ccccc2C1=O)N1CCC(C(N)=O)(N2CCCCC2)CC1 | >57 | i
CN(C)S(=O)(=O)c1ccc(C(=O)Nc2ccc(CN3CCCC3)cc2)cc1 | >57 | i
CC(C)C(c1nnnn1C(C)(C)C)N1CCN(c2cccc(Cl)c2)CC1 (configuration not stated) | >57 | i
C/C(Cl)=C\Cn1c(Nc2cccc(C)c2)nc2c1c(=O)n(C)c(=O)n2C | >57 | i

Fetched one by one from the list above, 5 records:
SMILES	PK Bst	TsaE inh
CN(C)S(=O)(=O)c1ccc(C(=O)Nc2ccc(CN3CCCC3)cc2)cc1	>57	i
COc1cccc(NC2c3ccccc3C(=O)N2Cc2ccco2)c1 (configuration not stated)	nt	i
CC(C)C(c1nnnn1C(C)(C)C)N1CCN(c2cccc(Cl)c2)CC1 (configuration not stated)	>57	i
O=C1CC2(CCCCC2)Oc2ccc(OCC(=O)N3CCOCC3)cc21	>57	i
C/C(Cl)=C\Cn1c(Nc2cccc(C)c2)nc2c1c(=O)n(C)c(=O)n2C	>57	i

(continued)
SMILES	PK Bst	TsaE inh
COC(=O)c1sc(NC(=O)c2ccc(Cn3cc(Cl)cn3)o2)c(C#N)c1C	>57	i
CC(C)Nc1ccccc1	nt	i
CC1(C)CCN(Cc2ccccc2)C1CC#N (configuration not stated)	>26	nt
COC(=O)c1[nH]c2ccc(F)cc2c1NC(=O)CCN1CCN(Cc2ccc3c(c2)OCO3)CC1	>57	i
Cc1cc(C)n(C2CCCCC2OC(=O)c2ccccc2)n1 (configuration not stated)	>26	nt
CCCNC(=O)NCCc1c(C)[nH]c2ccccc12	nt	i
O=C(C(Cc1ccccc1)n1cccc1)N1CCN(Cc2ccccc2)CC1 (configuration not stated)	nt	i
Cc1cc(C)cc(-c2nnc(SCC(=O)N3CCN(C(=O)c4ccco4)CC3)o2)c1	>57	i
Cc1cccc(C(=O)O)c1[N+](=O)[O-]	nt	i
C=CCOc1ccc(C2NC(=O)NC(C)=C2C(=O)OC)cc1 (configuration not stated)	>57	i
CC(C)(C)OC(=O)N1CCC(c2c(C(=O)O)cnn2-c2ccccc2)CC1	>57	i
O=C(c1ccco1)N1CCCC(c2ccccc2)C1 (configuration not stated)	>57	i
COc1ccccc1CNC(=O)C1CC(=O)N(c2ccc(C)c(C)c2)C1 (configuration not stated)	>57	i
O=C(NCCCN1CCOCC1)c1ccc(CNS(=O)(=O)c2ccc(F)cc2)cc1	>57	i
CN1CCN([C@@H]2Cc3ccccc3Sc3ccc(Cl)cc32)CC1	nt	i
Cc1cc(C)nc(Sc2c(C)nn(-c3ccccc3)c2C)n1	>57	i
CCN1CCN(CCNC(=O)c2cn(C(C)c3ccccc3F)nn2)CC1 (configuration not stated)	>57	i
Cc1ccc(CNC(=O)c2ccc(NS(=O)(=O)c3c(C)noc3C)cc2)cc1	>57	i
O=C(C1CC1)N1CCc2cc(S(=O)(=O)N3CCOCC3)ccc21	>57	i
Cc1cc2ncn(-c3ncnc4sc(C)c(C)c34)c2cc1C	>57	i
Cc1ccc(CSc2nnc(-c3ccco3)n2N)cc1	>57	i
CC1=C(C(=O)OC(C)C)C(c2ccc(Br)s2)NC(=O)N1C (configuration not stated)	nt	i
CCOC(=O)c1ccc2c(c1)nc(COc1ccccc1C#N)n2CC	>57	i
C=C(C)COc1ccc(-c2[nH]ncc2Oc2cccc(OC)c2)c(O)c1	>57	i
O=C(Nc1ccc(CN2CCOCC2)cc1)c1cc2ccccc2o1	i	i
COc1ccc(Nc2oc(COc3ccc(Cl)cc3)nc2C#N)cc1	>57	i
CN(CCNC(=O)c1ccc(N2CCCC2=O)cc1)CCc1ccccc1	>57	i
CSC(=NCc1cccnc1)NS(=O)(=O)c1cccs1	>57	i
COc1ccc(C)cc1NC(=O)CSc1nnc(-c2cc3cccc(OC)c3o2)n1N	>57	i
CN(C)S(=O)(=O)N1CCc2ccccc21	>57	i
COCCn1c(=O)[nH]c2cc(C(=O)N3CCN(Cc4ccc5c(c4)OCO5)CC3)ccc2c1=O	>57	i
CCn1c(Cc2cccn2C)nnc1SCC(=O)c1ccc(C)cc1	>57	i
CC(NC(=O)c1ccnc(C(C)(C)C)c1)c1ccccc1 (configuration not stated)	>57	i
COc1cccc(C(c2nnnn2Cc2ccco2)N2CCN(c3cccc(C)c3C)CC2)c1OC (configuration not stated)	>57	i
COCCCN(C)C1CCN(C(=O)Nc2ccc(F)cc2)CC1	nt	i
CN(C(=O)c1ccccc1Cl)c1ccccc1	>57	i
COc1ccc(S(=O)(=O)c2ccc(OC)c(OC)c2)cc1OC	>57	i
CCOC(=O)CCn1c(=O)c2c(nc(Br)n2Cc2ccccc2)n(C)c1=O	>57	i
Cn1c(C(=O)NCCCN2CCCCCC2)cc2c(=O)n(C)c3ccccc3c21	nt	i
Cn1ncc(C#N)c1/N=C/N1CCCCC1	>57	i
CN1CCc2c(sc3c2C(=O)NC(c2cccs2)N3)C1 (configuration not stated)	i	i
CCOc1cc(C2c3c(n[nH]c3C)C(=O)N2c2ccc(Br)cc2)ccc1O (configuration not stated)	>57	i
C1CCc2nnnn2CC1	nt	i
COc1ccc(S(=O)(=O)N2CCN(CC(=O)Nc3ccc(C)c(F)c3)CC2)cc1	>57	i
O=C(NCc1ccccc1)c1noc2c1CCCC2	>57	i
Cc1ccc2c(c1)nnn2C1CCN(S(=O)(=O)c2ccc(C(=O)N3C(C)CCCC3C)cc2)CC1 (configuration not stated)	>57	i
Cc1nc2sccn2c1P(c1c(C)nc2sccn12)c1c(C)nc2sccn12	>57	i
O=C(CCNS(=O)(=O)c1ccc(Cl)cc1)N1CCC2(O)CCCCC2C1 (configuration not stated)	>57	i
COC(=O)[C@@]1(Cc2ccccc2)[C@H]2c3cc(C(=O)N4CCCC4)n(CCc4ccccn4)c3C[C@H]2CN1C(=O)c1ccccc1	nt	i
O=C(CCCn1c(=S)[nH]c2ccccc2c1=O)NCc1ccco1	>57	i
CC(C)(C)[C@@]1(O)CCN2C[C@@H]3c4ccccc4CCc4cccc(c43)[C@@H]2C1	nt	i
CSc1nc(Oc2ccc(=O)[nH]n2)nc(N(C)C)n1	>26	nt
CCC(c1nnc(SCC(=O)N2CC3(C)CC2CC(C)(C)C3)o1)N(C)C (configuration not stated)	>57	i
CC(=O)n1c2ccccc2c2c1c1ccccc1n2C	nt	i
COc1ccc(S(=O)(=O)Cc2ccc(C(=O)NCc3ccco3)o2)cc1	nt	i
Cc1cc(NC(=O)CNC(=O)C2CCCCC2)no1	nt	i
Cc1ccc(O)c(NC(=O)c2cccc(S(=O)(=O)N3CCCCC3)c2)c1	>57	i
COCCn1nnnc1C(c1ccccc1OC)N1CCN(c2ccccc2F)CC1 (configuration not stated)	>57	i
COc1ccc(C2C(C#N)=C(N)Oc3n[nH]c(C)c32)cc1CSc1ccccn1 (configuration not stated)	>26	nt
O=C1COc2ccc(C(=O)CSc3nnc(Cc4cccs4)n3-c3ccccc3)cc2N1	>57	i
Next section
SMILES	PK Bst	TsaE inh
CCC1CCCCN1C1Sc2ccc(C(=O)OC)cc2NC1=O (configuration not stated)	>57	i
CS(=O)(=O)N1CCC2(CCN(Cc3ccncc3)CC2)CC1	nt	i
COc1ccc(OC)c(N2C(=O)CC(Cc3ccc(C)cc3)C2=O)c1 (configuration not stated)	>57	i
Cc1cc(OCCSc2nnc(-c3cccs3)n2C)ccc1Cl	>57	i
CC1(C)CC(=O)c2cc(OCC(=O)NCCCN3CCN(c4ccccc4F)CC3)ccc2O1	>57	i
C=CCOC(=O)Nc1c(C(=O)OC)[nH]c2ccc(Cl)cc12	>57	i
CCOc1ccc2c(O)csc2c1	nt	i
CN(Cc1ccccc1)c1nc2c(c(=O)[nH]c(=O)n2C)n1Cc1ccccc1	>57	i
Cc1cc2c(cc1C)-c1nnnn1C(C)(C)C2	>57	i
COC(=O)CNC(=O)CCCCC(=O)NCC(=O)OC	>57	i
Cc1ccccc1-c1cncnc1Nc1ccccc1	nt	i
Cc1ccc(SCC(=O)NCCN2C(=O)CSC2=O)c(C)c1	>57	i
COc1ccc(C2C/C(=N\O)C(C)(C)O2)cc1 (configuration not stated)	nt	i
Cc1ccc(-n2c(N)c(-c3nc4ccccc4n3C)sc2=S)cc1	>57	i
Cc1ccc(Nc2nc(N)nc(CN3CCN(Cc4ccc5c(c4)OCO5)CC3)n2)cc1Cl	>57	i
CC(C)(C)n1nc2c(c1NC(=O)c1ccc(Br)o1)CS(=O)C2 (configuration not stated)	>57	i
CCOc1cc(CN2CCOCC2)cc(C(C)=O)c1	>26	nt
CCOC(=O)c1ccc(NC(=O)CSc2nc3c(c(=O)n2CC)SC(C)C3)cc1 (configuration not stated)	nt	i

Assay outcomes from PubChem BioAssay.

An excerpt. The share of hits here may be higher or lower than overall.
